VACV Venus inh – qHTS for Stage-Specific Inhibitors of Vaccinia Orthopoxvirus: Venus Reporter Primary qHTS. Vaccinia virus Venus reporter expression, fluorescence. Potency, µM (titrated, usually from 36.5 µM), without a hit: at the top dose activity change, negative = inhibition, hits mostly inhibitors. hit rate 0.46% among 330,000; active means well fitted inhibition curve with a large enough effect; inconclusive means small, poorly fitted or top-dose-only effect; inactive means no such curve, though single readings can be large or run the other way; tested in A549 cells; further: nearly all actives have a fitted effect of over 30% in size; inactives centre near -10
Vaccinia mCherry – qHTS for Stage-Specific Inhibitors of Vaccinia Orthopoxvirus: mCherry Reporter Primary qHTS | AID 720579, 2013 | hit rate 0.63% among 310,000 | Vaccinia virus mCherry reporter infection, fluorescence; about a quarter of the inactives have no number | Potency, µM (series often up to 36.5 µM), inactives show top-dose activity change, negative = inhibition, hits mostly inhibitors; active = well fitted inhibition curve with a large enough effect; inconclusive = small, poorly fitted or top-dose-only effect; inactive = no such curve, though single readings can be large or run the other way; tested in A549 cells; further: nearly all actives have a fitted effect of over 35% in size; inactives centre near -10
Numbers without * were called inactive; i = inactive; ? = inconclusive; / = not tested or not shown; & = joins results of further samples. On the % scale 0 is the no-effect control and ±100 the full control effect; potency means the concentration at half of the fitted maximal effect.

SMILES	VACV Venus inh	Vaccinia mCherry
CSc1nnc(C(C)c2ncc(C(F)(F)F)cc2Cl)n1C (configuration not stated)	-23.0%	-14.0%
CCOC(=O)C1(Cc2ccc(OC)cc2)CCN(S(C)(=O)=O)CC1	5.9%	i
Cc1ccc(-c2nnc(SCC(=O)N/N=C/c3cccs3)n2-c2ccc(C)cc2)cc1	-5.3%	i
CC(=O)Nc1sc2c(c1C#N)CCCC2	-9.6%	i
COc1ccc(-c2cccc3c2C2CC3CCN2C(=O)OCc2ccccc2)cc1 (configuration not stated)	-10.4%	i
CN1CCN(C(=O)c2cnn(-c3ccc(F)cc3F)c2C2CCN(C(=O)OC(C)(C)C)CC2)CC1	-5.3%	-9.3%
CCOc1ccccc1CNC(=O)c1cnc2sc(N3CCCCCC3)nn2c1=O	-26.9%	-1.3%
Cc1cc(NC(=O)CSc2nc(-c3ccccc3)nc3c2c(=O)n(C)c(=O)n3C)no1	-16.1%	9.0%
COc1ccc(-c2cc3nc(C)cc(N4CCN(C(=O)c5ccco5)CC4)n3n2)cc1	-8.6%	?
CCCCCCCCNc1ccccc1S(=O)(=O)NCc1ccccc1	-20.7%	-4.3%
COCCCN(C(=O)Nc1ccccc1)C(C)c1ccncc1 (configuration not stated)	2.4%	-2.0%
COC(=O)c1ccc(OC(=O)c2cccnc2SC)cc1	2.6%	i
Fc1ccc(C(c2nnnn2Cc2ccco2)N2CCN(C3CCCCC3)CC2)cc1 (configuration not stated)	-13.8%	-25.9%
COc1nc(-c2ccc(Cl)cc2)nnc1C	6.9%	-9.4%
C=CCn1c(C(C)NC(=O)COC)nc2ccccc21 (configuration not stated)	-5.8%	6.5%

5 of the compounds above, as comma-separated lines.
Structure,VACV Venus inh,Vaccinia mCherry
CN1CCN(C(=O)c2cnn(-c3ccc(F)cc3F)c2C2CCN(C(=O)OC(C)(C)C)CC2)CC1,-5.3%,-9.3%
COc1ccc(-c2cccc3c2C2CC3CCN2C(=O)OCc2ccccc2)cc1 (configuration not stated),-10.4%,i
Cc1cc(NC(=O)CSc2nc(-c3ccccc3)nc3c2c(=O)n(C)c(=O)n3C)no1,-16.1%,9.0%
Cc1ccc(-c2nnc(SCC(=O)N/N=C/c3cccs3)n2-c2ccc(C)cc2)cc1,-5.3%,i
CCOC(=O)C1(Cc2ccc(OC)cc2)CCN(S(C)(=O)=O)CC1,5.9%,i

The list continues:
SMILES	VACV Venus inh	Vaccinia mCherry
O=C(NCCC1CCCCN1S(=O)(=O)c1ccccc1)C(=O)NCCN1CCOCC1 (configuration not stated)	-5.6%	-17.5%
Cc1c(Cl)cccc1N=C1SCCN1C(=O)CN1C(=O)NC2(CCCC2)C1=O	?	?
COc1ccc(C(=O)N2CCCC2(C#N)c2ccccc2)cc1[N+](=O)[O-] (configuration not stated)	-23.6%	-13.5%
COc1ccc(-c2ccc(C(=O)O)c(=O)[nH]2)cc1	-15.1%	i
Cn1cnnc1SCC(=O)Nc1nc(-c2ccccc2)cs1	-0.3%	-14.9%
Cc1ccc(S(=O)(=O)N2[C@H](CC(=O)c3cccc4ccccc34)OC[C@@H]2C(C)C)cc1	-16.8%	-24.8%
Cc1cccn2cc(CCNS(=O)(=O)c3ccc([N+](=O)[O-])cc3)nc12	-28.1%	?
Cc1ccc(C(=O)Nc2ccc(C(=O)OCc3cc(=O)n4ccsc4n3)cc2)cc1	-1.9%	-11.0%
O=C(CSc1nc2ncccc2[nH]1)Nc1ccc2c(c1)OCCO2	3.8%	/
CC1CCCCN1C(=O)CNCc1ccc(F)cc1 (configuration not stated)	-17.4%	i
CCC1NC(=O)c2cccnc2-n2c1nc1cc(OC)c(OC)cc1c2=O (configuration not stated)	-5.9%	i
CCC1CCCCN1C(=O)c1cc(COc2ccc(-n3cncn3)cc2)on1 (configuration not stated)	-20.3%	-2.8%
COc1ccc(NC(=O)N(O)C2(C#N)CCCCC2)cc1	-7.2%	-20.8%
CCOc1cc(/C=N/NC(=O)C(O)(c2ccccc2)c2ccccc2)ccc1OC(=O)c1ccco1	-7.9%	-26.3%
Cc1ccccc1Cc1c(C)nc2c(C(=O)NCc3ccc4c(c3)OCO4)cnn2c1C	-17.0%	i

Gathered by group: the compounds so far containing a furan ring, fused or not
SMILES	VACV Venus inh	Vaccinia mCherry
COc1ccc(-c2cc3nc(C)cc(N4CCN(C(=O)c5ccco5)CC4)n3n2)cc1	-8.6%	?
Fc1ccc(C(c2nnnn2Cc2ccco2)N2CCN(C3CCCCC3)CC2)cc1 (configuration not stated)	-13.8%	-25.9%
CCOc1cc(/C=N/NC(=O)C(O)(c2ccccc2)c2ccccc2)ccc1OC(=O)c1ccco1	-7.9%	-26.3%

Following part
SMILES	VACV Venus inh	Vaccinia mCherry
CNC(=O)c1cccc(NC(=O)CCCNC(=O)c2ccc(Cl)cc2)c1	0.0%	i
O=C1NC(=O)C2C1C(c1ccc([N+](=O)[O-])cc1)=NN2Cc1ccccc1 (configuration not stated)	-17.0%	i
CCOc1ccc(-c2cc(C)[n+](CCO)c(-c3ccc(OCC)cc3)c2)cc1	-8.4%	i
COc1ccccc1NC(=O)CC(c1ccc(OC(C)C)cc1)c1ccccc1OC (configuration not stated)	-15.2%	i
CCN(CC)S(=O)(=O)c1cc(NC(=O)CSc2nc3c(cc2C#N)C(=O)CC(C)(C)C3)ccc1C	-14.8%	-26.9%
O=C(OCC(=O)N1CCCCCC1)c1cccc(Cl)c1Cl	-5.7%	i
O=S1(=O)CC(N2CCN(CC3CC3)CC2)CN1Cc1cn(Cc2ccccc2C(F)(F)F)nn1 (configuration not stated)	3.7%	i
CC1(C(=O)NS(=O)(=O)c2ccccc2)CCN1C(=O)c1cccc2ccccc12 (configuration not stated)	7.1%	-14.2%
O=C(c1cccc([N+](=O)[O-])c1)N1CCN(CCc2ccncc2)CC1	0.0%	-15.5%
Cc1nnc(NC(=O)CSCc2cc(=O)c3ccc(C)c(C)c3[nH]2)s1	-5.2%	-3.7%
O=S(=O)(c1ccccc1)N1CCN(C(=S)Nc2ccc(F)cc2)CC1	-13.7%	-23.0%
COc1cccc(-c2nc3nc(C)cc(C)n3c2Nc2c(C)cccc2C)c1	13.6%	-15.2%
COCCCNC(=O)c1csc([C@@H]2O[C@H](CO)[C@H](O)[C@H](O)[C@H]2O)n1	-2.4%	-1.6%
CS(=O)(=O)c1ccc(CNC(=O)C2(C(F)(F)F)CC(CCCO)CCCO2)cc1 (configuration not stated)	?	11.2µM*
Brc1cccc(-c2nnc3sc(CN4CCCCC4)cn23)c1	-9.3%	-17.7%
Cn1cc(S(=O)(=O)N2CCCC2)cc1C(=O)N1CCN(c2cccc(Cl)c2)CC1	-10.7%&-17.5%	12.4%&-19.7%
COc1ccc(CCNC(=O)CCCn2c(=O)c3ccccc3n(Cc3cccc(Cl)c3)c2=O)cc1OC	?	?
Cc1c(NC(=O)c2nn(C(C)C)c(=O)c3ccccc23)c(=O)n(-c2ccccc2)n1C	-15.4%	-12.4%
CCn1ccnc1CN(C)Cc1cn(-c2cc(C)ccc2C)nc1-c1ccccc1	-10.2%	-22.6%
CCOC(=O)c1cc2c(c(-c3ccccc3)n1)[C@@H](CCO)N(S(=O)(=O)C(C)(C)C)C2	-17.3%	i
O=C(Nc1nnc(-c2ccc(F)cc2)s1)c1ccco1	-1.9%	-18.5%
CCOc1ccc(NCc2cccn2-c2nnc(N3CCC(C(=O)NCc4cccc(OC)c4)CC3)s2)cc1	-27.1%	-25.5%
CCN(C(=O)C=Cc1ccco1)c1ccccc1	-9.4%	i
CC1(C(=O)NS(=O)(=O)c2ccccc2)CCN1C(=O)CC1CC1 (configuration not stated)	1.6%	24.0%
OC(c1cccc(Cl)c1)c1ncc(-c2ccccc2Cl)[nH]1 (configuration not stated)	-23.2%	-29.4%
Cc1nn(-c2ccccc2)c(C)c1/C=N/Nc1nc2ccccc2[nH]1	-4.8%	?
NC(=O)c1ccccc1OCC(=O)NS(=O)(=O)c1ccccc1	-8.5%	-0.7%
Cc1ccc2ccc(C(Nc3ccccc3)c3ccc(F)cc3)c(O)c2n1 (configuration not stated)	12.0%	?
Cc1cccc(NC(=O)N2CCN3CCCCC3C2)c1C (configuration not stated)	-12.8%	-10.3%
COc1cccc(Cn2c(=O)n(-c3cc(C)cc(C)c3)c(=O)c3oc4ccccc4c32)c1	-9.1%	-6.6%
CN(CP(=O)(O)CCc1ccccc1)S(C)(=O)=O	-7.8%	/
O=C(Nc1ccccc1)ON=C1CCCC1	-9.4%	-11.0%
Cc1ccc(F)cc1NC(=O)C12CC3CC(C1)CC(n1cnc([N+](=O)[O-])n1)(C3)C2	-2.5%	-13.4%
Cc1ccc(C(=O)NCC2CCCO2)cc1S(=O)(=O)N1CCCCC1 (configuration not stated)	-14.3%	-2.3%
CCC1(c2ccc(F)cc2)NC(=O)N(CC(=O)N2CCN(S(=O)(=O)c3ccc(Cl)cc3)CC2)C1=O (configuration not stated)	-17.4%	-8.4%
CCOC(=O)N1CCC(NC(=O)c2cc(C(=O)NC3CCN(Cc4ccccc4)CC3)ccc2CO)CC1	-16.1%	-10.2%
Cc1cc(N2CCCCC2)nc2ccc(NC(=O)CCC(=O)N3CCN(c4cccc(Cl)c4)CC3)cc12	?	?
CCOC(=O)C1C(=O)NC23CCCC2C1c1ccccc1O3 (configuration not stated)	-11.4%	-17.5%
Cc1ccc(N2CCC(N3CCN(C4CCCCC4)C(CCO)C3)CC2)cc1 (configuration not stated)	-23.5%	-16.0%
COCCCN(C(=S)Nc1ccc(OC)cc1)C(C)c1ccncc1 (configuration not stated)	-10.8%	-8.5%
COC(=O)c1c(-c2ccc(Cl)cc2)noc1N1CCN(c2ccccc2OC)CC1	-10.4%	3.7%
COCCNC(=O)CCC(=O)NNc1nc2ccccc2c2nc(-c3ccccc3)nn12	4.2%&2.8%	-15.5%&-11.6%
CC(C)(C)c1ccc(S(=O)(=O)NC(=O)C2(C)CCN2C(=O)Cc2ccccc2Cl)cc1 (configuration not stated)	-5.2%	2.1%
COc1cc(C(=O)OC2CC[C@]3(C)C4CCC5[C@]6(O)CC(O)[C@]7(O)C(CN8CC(C)CCC8[C@]7(C)O)[C@]6(O)C[C@@]53O[C@]24O)cc(OC)c1OC (some centres not stated)	-10.2%	-14.4%
CC(=O)Nc1ccc(NC(=O)COC(=O)c2ccc([N+](=O)[O-])o2)cc1	1.2%	i
COc1ccccc1NC(=O)c1oc2ccccc2c1NC(=O)C(C)C	-13.8%	-12.7%
CCN(Cc1ccccc1)c1ncnc2c1cnn2-c1ccc(F)cc1	-9.6%	5.9%
Cn1c(=O)c2c(nc(NCc3ccccc3)n2Cc2ccc(Cl)c(Cl)c2)n(C)c1=O	?	?
CC(C)c1ccc(S(=O)(=O)c2nnn3c2nc(N2CCOCC2)c2sccc23)cc1	-8.5%	-7.8%
COc1ccc([N+](=O)[O-])cc1NC(=O)CCN1CCN(CCO)CC1	-10.1%	-15.7%
CNC(=O)c1c(NC(=O)Cc2coc3ccc(C)cc23)sc2c1CCCC2	-15.0%	-10.3%
COCCNC(=O)N1[C@H]2CC[C@@H]1C(C(=O)OC)=C(c1ccc(OC(F)(F)F)cc1)C2	?	-20.5%
CCN1CCCC1CNC(=O)Cn1cc(C)c(=O)[nH]c1=O (configuration not stated)	-8.1%	-17.7%
O=C(NC(=S)Nc1nc2ccccc2s1)c1ccco1	-12.6%	i
CCC1Oc2ccc(C)cc2N(CC(=O)NCc2ccc(F)cc2)C1=O (configuration not stated)	-17.5%	-6.0%
Cc1cccc(C)c1NC(=O)C1C(c2ccc3c(c2)OCO3)=Nc2ccccc2N1C(=O)c1ccccn1 (configuration not stated)	-29.6%	?
CC(=O)N1CSCC1C(=O)NNS(=O)(=O)c1ccccc1 (configuration not stated)	-10.1%	i
c1cnc2ccc(C(c3nnnn3C3CCCCC3)N3CCN(C4CCCCC4)CC3)cc2c1 (configuration not stated)	-14.3%	-20.1%
C(=N\n1cncn1)/c1ccc(N2CCOCC2)cc1	-7.7%	-7.1%
COc1ccc(-c2cn(/N=C/c3ccc(Cl)cc3Cl)c(N)n2)cc1	-22.3%	-12.0%

Remaining list, next part.
SMILES	VACV Venus inh	Vaccinia mCherry
Cc1ccc(C(C)(O)CS(=O)(=O)Cc2ccccc2)cc1 (configuration not stated)	-14.0%	i
CCOC(=O)C1=C(C)NC(=NC)SC1c1ccccc1 (configuration not stated)	-1.9%	i
CCc1cccc(NC(=O)c2cc3c(=O)[nH]c4ccccc4c3n2C)c1	-21.5%	-16.6%
OC(CN1CCOCC1)(c1ccccc1)c1ccccn1 (configuration not stated)	-9.1%	i
O=C(CSc1nnc(-c2ccc(Cl)cc2)o1)N1CCc2ccccc21	-13.9%	-5.5%
COc1ccc(CN(CCc2c[nH]c3ccccc23)Cc2ccc(OC)cc2)cc1	?	?
CCSc1oc(-c2cccs2)nc1S(=O)(=O)c1ccc(Br)cc1	-10.9%	-3.4%
Cn1cnnc1SCC(=O)Nc1ccc(F)cc1F	-10.2%	-9.8%
Cc1nn2c(-n3ccnc3C)c3c(nc2c1-c1ccccc1)CCC3	-10.7%	-8.6%
COc1ccc(CCNC(=O)CCc2cn(Cc3ccc(C)cc3)c3ccccc23)c(OC)c1OC	-14.9%	-18.4%
Cc1ccc(-c2noc(C3CCCN(C(=O)c4ccc(Cl)cc4)C3)n2)o1 (configuration not stated)	-13.0%	i
CCc1ccc(CNC(=O)c2ccc(OC)c(OC3CCN(C(C)C)CC3)c2)nc1	-11.9%	-0.5%
Cc1ccc(N2CCN(CC(O)COc3cccc(C)c3)CC2)cc1 (configuration not stated)	-7.3%	i
CCOc1ccc(N2Nc3n[nH]c(N)c3N2)cc1	?	2µM*
COc1cc(/C=N/Nc2ccc(C)cc2)cc(Br)c1O	0.8%	-14.3%

Compound activity from PubChem BioAssay.
